# Ecoli growth = E. coli growth inhibition; Escherichia coli growth, OD600, 23 h; active compounds read low; OD600 absorbance (test concentration not listed); 330,000 tested, 0.21% active; AID 1053175;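 active = OD600 absorbance below the run mean of sample wells minus 3.6 SD, in any replicate, cut at about 0.56 in these data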;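 note: stock transfer was 300 nL into about 60 µL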
# HNF4A DNA FP = change in binding of human HNF4 alpha to DNA; P41235; HNF4a-FITC DNA binding, fluorescence polarization, 1 h; activity change, % at 10 µM; 360,000 tested, 0.3% active; in the data active = activity change above about 30%, passing the limit was not always enough;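 note: controls were the assay level and a saturating level of protein; the project sought stronger binding though the title names inhibitors; some compounds called inactive have numbers as strong as hits; positive values seem to mean higher polarization but the record does not say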
# ALR H2O2 inh = inhibitors of human sulfhydryl oxidase ALR; inhibition, % (no concentration beside the values); purified ALR, DTT oxidation, H2O2 HRP-luminol luminescence; P55789; AID 485317; 290,000 tested, 3.8% active;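 active = mean and each replicate at 75% or more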;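 note: stock transfer was 7.5 nL into about 7.5 µL; 0% = neutral wells and 100% = wells with inactivated enzyme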
# Target sequence (P55789 whole entry, looked up): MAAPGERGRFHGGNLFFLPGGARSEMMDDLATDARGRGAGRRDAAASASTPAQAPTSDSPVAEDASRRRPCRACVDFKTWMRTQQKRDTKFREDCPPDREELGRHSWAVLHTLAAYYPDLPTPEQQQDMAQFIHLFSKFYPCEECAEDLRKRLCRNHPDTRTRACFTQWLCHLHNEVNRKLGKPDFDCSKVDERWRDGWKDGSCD
# Ecoli rRNA inh = inhibits bacterial ribosomal RNA function over humanized ribosomes; E. coli WT GFP vs humanized-ribosome RFP mutants, fluorescence, 24 h; active compounds read low; DMSO median 0, no signal -100; 350,000 tested, 1.6% active; GFP signal change (wild-type ribosome), % (test concentration not listed);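 active = significant combined selectivity score with lowered wild-type GFP, culture density cut under 30%, mutant RFP and density less affected; inactive = any of these conditions unmet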; note: one replicate is shown; some compounds called inactive have numbers as strong as hits
# FGF22 binding = FGF22 (human) thermal shift binding. AID 651658. recombinant FGF22 thermal shift, SYPRO orange fluorescence; percent of sucrose octasulfate shift, DMSO zero. calls only at 9.99 µM. 340,000 tested, 1.5% active;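 active = melting point raised past a set limit in the mean and every replicate; three in four hits are not shown here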
# UCH37 inh = inhibitors of human deubiquitinating enzyme UCH37. Q9Y5K5. purified proteasome/UCH37, Ub-AMC cleavage fluorescence. inhibition, % (no concentration beside the values). 330,000 tested, 0.33% active. AID 588478;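 active = mean of two replicates above 20%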;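 note: 0% = compound-free wells with enzyme and 100% = wells lacking proteasome; stock transfer was 100 nL into about 20 µL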
# Target sequence (Q9Y5K5 whole entry, looked up): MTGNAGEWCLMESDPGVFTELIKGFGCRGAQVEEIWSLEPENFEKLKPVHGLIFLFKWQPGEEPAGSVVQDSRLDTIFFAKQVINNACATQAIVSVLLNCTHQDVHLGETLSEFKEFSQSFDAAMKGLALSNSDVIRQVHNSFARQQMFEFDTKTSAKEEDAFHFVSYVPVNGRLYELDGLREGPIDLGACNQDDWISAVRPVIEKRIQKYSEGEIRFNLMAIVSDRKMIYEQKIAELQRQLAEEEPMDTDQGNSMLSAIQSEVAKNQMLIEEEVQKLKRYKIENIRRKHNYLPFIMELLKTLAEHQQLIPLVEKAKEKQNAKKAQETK
#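 Material: Human UCH37 enzyme supplied as purified proteasome complex | Schedule: 30 min compound-proteasome preincubation then 25 min substrate reaction, room temperature | Detection: AMC fluorescence from Ub-AMC cleavage, excitation 355 nm, emission 460 nm | Benchmarks: Wells without proteasome as full block, compound-free enzyme plus substrate as uninhibited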
# Beta2AR agonist = activates human beta-2 adrenergic receptor causing internalization; P07550; Am2.2-beta2AR cells, FAP receptor internalization, flow cytometry; reference of the scale not given here; 340,000 tested, 0.43% active; AID 504454; response, % (no concentration beside the values);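 active = response above a set limit, near 3 SD of response in nonfluorescent compounds, cut at about 42% in these data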;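 note: stock transfer was 100 nL into about 11 µL; a reference agonist was the positive control; negative values mostly stem from fluorescent compounds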
# Target sequence (P07550 whole entry, looked up): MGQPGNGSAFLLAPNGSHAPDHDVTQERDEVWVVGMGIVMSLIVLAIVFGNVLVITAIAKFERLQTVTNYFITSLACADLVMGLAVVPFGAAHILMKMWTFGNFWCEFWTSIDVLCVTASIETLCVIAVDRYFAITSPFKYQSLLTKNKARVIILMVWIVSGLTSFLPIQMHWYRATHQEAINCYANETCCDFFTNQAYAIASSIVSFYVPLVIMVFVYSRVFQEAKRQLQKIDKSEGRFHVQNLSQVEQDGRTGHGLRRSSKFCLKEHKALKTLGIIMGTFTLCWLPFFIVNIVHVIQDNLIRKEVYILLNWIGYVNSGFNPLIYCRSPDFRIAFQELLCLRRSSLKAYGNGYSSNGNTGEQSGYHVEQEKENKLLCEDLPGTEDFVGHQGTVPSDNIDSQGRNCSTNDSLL
# Ecoli rRNA inh OD600 = also measured in Ecoli rRNA inh; calls as there; OD600 change, %; measured here: OD600 growth;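 optical density of the mix in the first replicate; 0 = DMSO median and -100 = no signal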
# Ecoli rRNA inh RFP = second read-out of Ecoli rRNA inh, no call of its own (marks repeat the call); RFP signal change, %; measured here: RFP humanized mutant strains;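 first replicate; 0 = DMSO median and -100 = no signal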
# * = called active by the depositor; i = inactive; / = no result given. Not all compounds are listed (hit frequency here may not be typical).
# Values in the order – FGF22 binding, UCH37 inh, ALR H2O2 inh, Beta2AR agonist, Ecoli rRNA inh RFP, HNF4A DNA FP, Ecoli rRNA inh OD600, Ecoli rRNA inh, Ecoli growth
(1) COC(=O)c1cc(O)c(O)c(O)c1
  i, 3.5, 96*, -5, 1.8, -2.8, 12, 21, 0.71
(2) O=S(=O)(NC1CCc2ccccc21)c1ccccc1 (configuration not stated)
  i, /, /, /, 3.4, 3.4, -9, -3, /
(3) CC1CCCC(NC(=O)Nc2cccs2)C1C (configuration not stated)
  /, 2.5, 67, -3, /, 2.5, /, /, 0.67
(4) CCn1nc(C)c(CNC(=O)C2CCC(=O)N(Cc3ccc(Cl)cc3)C2)c1C (configuration not stated)
  i, -0.2, -7, -5, 0.6, -2.0, 6, -2, 0.72
(5) Cc1nc2ncnn2c(C)c1CCC(=O)NCc1ccco1
  /, 0.0, -10, -3, /, -2.1, /, /, 0.68
(6) CCn1c(CNc2ccc(Cl)cc2)nnc1SCC(=O)NCc1ccccc1
  /, 5.1, /, -11, /, 3.8, /, /, 0.68
(7) Cc1ccnc(NC(=O)c2cc3c(=O)oc4ccc(C)cc4c3s2)c1
  i, -106, -3, 11, -1.3, -0.6, 3, 0, 0.69
(8) CNc1ncnc2c1ncn2-c1ccccc1
  i, -2.6, /, -7, 1.3, 2.1, 12, 8, 0.71
(9) CC(=O)N1CC2(c3ccccc3)CN(C(C)=O)CC(c3ccccc3)(C1)C2=O
  i, 0.8, /, 2, 2.7, 2.4, 3, 1, 0.67
(10) CCc1ccc(C(=O)COc2ccc(NC(C)=O)cc2)cc1
  /, 3.2, -4, 20, /, 5.8, /, /, 0.66
(11) O=C(COc1ccc(Cl)cc1)Nc1ccccc1C(=O)NCc1cccnc1
  i, 2.0, 2, -4, 0.0, -0.5, -1, -2, 0.71
(12) CN(C)c1ccc(CNC(=O)CN(C)S(=O)(=O)c2ccc3c(c2)c(=O)n(C)c(=O)n3C)cc1
  i, -1.2, 71, -3, 2.4, -2.0, 14, 17, 0.69
(13) Cn1c(SCC(=O)Nc2ccc3c(c2)OCCO3)nnc1-c1ccco1
  /, 2.1, -7, -7, /, 2.1, /, /, 0.68
(14) COc1cc(CNCc2ccccn2)ccc1OCC(=O)NC(C)(C)C
  /, 4.7, -7, 0, /, -4.0, /, /, 0.69
(15) Cc1ccc2nc(NC(=O)C(NS(=O)(=O)c3cccc4nsnc34)C(C)C)sc2c1 (configuration not stated)
  i, 6.5, -1, -5, -11, 2.4, -19, -16, 0.7
(16) NC(=O)c1cccn1Cc1cccc(Cl)c1
  /, -2.5, /, 1, /, 3.9, /, /, 0.68
(17) C=CCn1c(SCC(N)=O)nc2scc(-c3ccc(C)o3)c2c1=O
  i, -1.1, 5, -3, 5.1, -1.5, 4, 3, 0.66
(18) CC(=O)Nc1cccc(C(=O)N/N=C/c2ccc(F)cc2)c1
  i, /, 3, -1, -3.8, 1.2, 4, 15, /
(19) O=C1[C@H]2[C@@H](c3ccc(C(F)(F)F)cc3)N[C@]3(CCCN(Cc4ccco4)C3=O)[C@H]2C(=O)N1Cc1ccccc1
  i, /, /, /, 13, -1.2, -47, -19, /
(20) Cc1ccc(C2=NS(=O)(=O)N(C)C(C(=O)NC(C)c3ccccc3)=C2)cc1 (configuration not stated)
  i, 2.2, -10, 0, -6.3, -3.1, -16, 7, 0.77
(21) CCc1sc(C(=O)Nc2ccc(NC(C)=O)cc2)cc1C
  i, -14, 1, -10, /, -0.9, /, /, 0.75
(22) Cc1cccc(NS(=O)(=O)Cc2ccccc2)c1C
  i, 3.2, -27, -4, 2.1, 1.1, -11, -5, 0.61
(23) CNc1nc(NCc2ccccc2)nc(N)c1[N+](=O)[O-]
  i, 5.7, -1, -3, 1.1, 0.3, -1, 25, 0.71
(24) CCN(CCO)c1nc(N2CCCCC2)c2cnn(C)c2n1
  i, 0.8, -6, 3, -1.9, -3.4, -11, -13, 0.67
(25) Cc1cccc(N(CC(=O)Nc2c(C)n(C)n(-c3ccccc3)c2=O)S(C)(=O)=O)c1
  /, 3.8, /, -6, /, 3.2, /, /, 0.72
(26) COC(=O)Cc1csc(NC(=O)CSc2nncn2C)n1
  /, -0.7, 0, /, -1.7, 3.3, 9, 7, 0.66
(27) CC(C)(C)NC(=O)c1ccc(COc2ccc(Cl)cc2Cl)o1
  i, 0.3, /, -4, -21, -0.2, -83, -56, 0.65
(28) O=C1c2ccccc2NC(c2ccc(O)cc2)N1/N=C/c1ccc(O)cc1 (configuration not stated)
  /, /, 99*, -6, /, -1.5, /, /, /
(29) COc1ccc(-c2noc3c2-c2nc(-c4ccccc4Cl)sc2CC3)cc1
  /, -2.9, -7, 3, /, 3.4, /, /, 0.72
(30) COc1cccc2cc3c(=O)oc4ccccc4c3nc12
  /, -13, -4, 6, /, 0.1, /, /, 0.72
(31) Cc1csc(NC(=O)CSc2nncs2)n1
  i, -0.7, /, -5, 0.8, -2.0, 12, 9, 0.7
(32) OC(COc1ccc(CN2CCCCO2)cc1)CN1CCCCC1 (configuration not stated)
  i, -0.6, 2, -1, 4.3, -1.2, 10, 16, 0.7
(33) O=C(Cn1cnc2ccccc21)N/N=C/c1cccs1
  /, /, -8, -9, /, -0.4, /, /, /
(34) N#CCCN(C(=O)COC(=O)CCc1nc2ccccc2c(=O)[nH]1)c1ccc(F)cc1
  i, 5.2, 2, 4, -1.2, 1.6, 9, 2, 0.63
(35) COc1ccc(/C=C/C(=O)Nc2ccc(-n3nncc3-c3ccc(OC)c(OC)c3)cc2)cc1OC
  i, -46, /, 15, /, 0.2, /, /, 0.73
(36) CCOc1c([N+](=O)[O-])cc2c(C)c(C(=O)N3CCN(C)CC3)oc2c1OCC
  i, 6.9, -42, 2, 9.2, -0.3, 0, -3, 0.62
(37) CN(CC(=O)O)S(=O)(=O)c1cc(Cl)ccc1Cl
  i, 1.7, -12, -1, -2.0, 15, -1, 7, 0.72
(38) O=C(NCCO)C(=O)NCC1OCCCN1S(=O)(=O)c1cccs1 (configuration not stated)
  /, 3.5, -43, -6, /, 3.9, /, /, 0.75
(39) COc1ccc(N(C(=O)c2ccco2)C(C(=O)NC2CCCC2)c2ccccc2)cc1 (configuration not stated)
  i, 6.1, /, 9, -1.6, -3.0, 3, 7, 0.67
(40) CCOC(=O)C(=O)N/N=C/c1ccco1
  i, /, 7, 1, 1.9, -1.8, 9, 6, /
(41) CC(=O)c1cccc(NC(=O)c2ccc(C)o2)c1
  i, 1.2, -5, 1, 0.1, 1.0, 1, 4, 0.65
(42) Cc1ccc(NC(=O)NNC(=O)C2CC(c3cccs3)=NO2)cc1 (configuration not stated)
  i, 5.2, 5, -1, 0.9, -3.7, 2, 2, 0.67
(43) CCOC(=O)CC1C(C(=O)OCC)ON2OC(C(=O)OC)C(C(=O)OCC)C12 (configuration not stated)
  /, 5.0, -5, -2, /, -2.7, /, /, 0.67
(44) CCN(CCCNC(=O)CCn1c(=O)[nH]c2ccccc2c1=O)c1cccc(C)c1
  /, 0.0, 3, -4, /, -6.1, /, /, 0.67
(45) CCCC(=O)Nn1cnc2c(c1=O)C1(CCCCC1)Cc1ccccc1-2
  /, 1.5, -4, 3, /, -1.6, /, /, 0.74
(46) CCOC(=O)c1c(C)oc2ccc(OC(=O)N3CCOCC3)cc12
  i, 4.9, -4, 7, 5.3, 5.5, -5, -1, 0.73
(47) C[C@@H]1NC(=O)[C@H](CCC(=O)O)NC(=O)c2cc([N+](=O)[O-])cc(F)c2NCCC[C@@H](C(N)=O)NC1=O
  i, 0.9, -17, 1, 15, -0.2, 11, 7, /
(48) Cc1cc(NC(=O)CSc2nc3c(c(=O)n2Cc2ccccc2)SC(C)C3)no1 (configuration not stated)
  i, 6.4, 5, -16, -0.3, -1.3, 1, 2, 0.71
(49) CCc1ccc(NC(=O)N2CCN(c3ccccc3)CC2)cc1
  i, 1.8, /, 10, -3.4, 1.5, -8, -15, 0.62
(50) S=C(NCc1ccco1)Nc1cccc(Cl)c1
  /, 2.6, 11, 9, /, 3.6, /, /, 0.65

# Carrying on.
# Values in the order – FGF22 binding, UCH37 inh, ALR H2O2 inh, Beta2AR agonist, Ecoli rRNA inh RFP, HNF4A DNA FP, Ecoli rRNA inh OD600, Ecoli rRNA inh, Ecoli growth
(51) Cc1ccccc1NC(=O)N1CCCC(c2nc(-c3ccc(C(C)C)cc3)no2)C1 (configuration not stated)
  i, 4.2, -25, 2, 7.3, 1.6, -10, -15, 0.67
(52) CCc1ccc(C2CC(c3ccc(C)cc3)Nc3nc(N)nn32)cc1 (configuration not stated)
  i, -1.8, 3, -7, -5.1, -1.0, -31, -16, 0.71
(53) CCCC(=O)N(c1ccc2oc(C)c(C(C)=O)c2c1)S(=O)(=O)c1ccc(C(=O)O)cc1
  i, 0.2, 4, 5, -1.1, -2.0, -3, 7, 0.66
(54) CS(=O)(=O)N1CCN(C(=O)Cc2ccc([N+](=O)[O-])cc2)CC1
  i, 1.3, -9, 13, -0.7, -2.5, 7, 9, 0.68
(55) O=C1O[C@@H](c2ccccc2)C[C@@H](O)C(=O)CCCCc2ccccc21
  i, /, /, /, 0.5, -1.1, -9, -8, /
(56) COc1ccccc1-c1noc(-c2cccnc2)n1
  /, 1.0, -9, /, /, 0.1, /, /, 0.66
(57) Cc1ccc(Cl)cc1C1=CC(=O)C[C@H](c2ccc(F)cc2)C1
  i, 1.2, -1, -9, -27, 1.4, -23, -18, /
(58) COc1ccc(CNCc2cccc3ccccc23)cc1
  i, 6.6, 0, 3, -6.7, -1.1, -19, 1, 0.63
(59) Cc1cc(C)c2nc(-c3ccccn3)cc(C(=O)NCCc3ccc(S(N)(=O)=O)cc3)c2c1
  i, -112, 2, -2, 7.9, 2.9, 19, 17, 0.71
(60) CS(=O)(=O)N(CC(=O)NCCSc1ccccn1)c1cccc2ccccc12
  i, 1.7, 3, -3, 0.4, -2.2, 4, 6, 0.7
(61) CC(O)(CS(=O)(=O)Cc1ccccc1)c1ccc(Cl)cc1 (configuration not stated)
  i, 3.0, -3, 1, -1.4, -1.6, -1, 4, 0.68
(62) Cn1c(=O)cc(SCC(=O)NCCN2CCN(c3ccccc3F)CC2)c2cc(Cl)ccc21
  /, 3.1, -2, -31, /, 2.1, /, /, 0.72
(63) O=C(COC(=O)c1ccc2ncsc2c1)Nc1ccc(Cl)cc1
  i, 0.6, 16, -3, 2.9, -1.5, 3, 3, 0.69
(64) C=CCNC(=O)/C(C#N)=C/c1cc(Br)ccc1OC
  i, 2.5, 8, 12, 0.7, 1.9, 7, 3, 0.69
(65) CCOC(=O)c1c(C)n(OCc2ccccc2)c2ccc3c(no[n+]3[O-])c12
  /, 3.6, -4, 13, /, 3.7, /, /, 0.68
(66) CCN1C(=O)[C@@H]2C(C(=O)c3cnccn3)=NN[C@@H]2C1=O
  i, 9.5, 11, -7, 5.2, 1.7, 3, 13, 0.65
(67) CCSc1nnnn1-c1ccccc1
  /, -0.3, -4, 10, 0.3, -0.8, 14, 4, 0.72
(68) Cc1ccccc1C(=O)NCC(=O)NNC(=O)c1cccc(Cl)c1
  i, 0.3, 12, 2, -0.8, 3.5, -1, 3, 0.65
(69) CCOc1ccccc1NC(=O)CN1C(=O)C(=O)N(Cc2ccco2)C1=O
  i, -2.2, /, 5, 0.3, -1.2, 12, 16, 0.71
(70) CCCN(CCC)CCCNC(=O)Cn1cnc2sc(C)c(S(=O)(=O)N3CCCCC3)c2c1=O
  i, 1.9, 3, 1, 1.5, -2.8, 9, 5, 0.64
(71) CSc1nc2sccc2c(=O)[nH]1
  i, -2.1, -6, 1, 1.7, -3.5, 4, 5, 0.68
(72) Cc1ccc(S(=O)(=O)NN2C(=O)c3ccccc3NC2c2ccco2)cc1 (configuration not stated)
  i, -140, -1, -1, 1.3, -1.3, 0, 10, 0.7

# Screens from PubChem.
